Source: PubChem (several laboratories)
WNV NS2B-NS3 inh = blocks West Nile virus NS2B-NS3 protease activity | WNV NS2B-NS3 protease, fluorogenic substrate Ex360/Em465; hits give low values | z-score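 (tested at a level between 10 and 100 µM)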 | actives 0.18% (n = 65,000) | AID 577;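 active = z-score at -3 or under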;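 note: score is relative to mean and spread of the compound wells of a plate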
Target sequence (P06935 1371-1501 limits assumed): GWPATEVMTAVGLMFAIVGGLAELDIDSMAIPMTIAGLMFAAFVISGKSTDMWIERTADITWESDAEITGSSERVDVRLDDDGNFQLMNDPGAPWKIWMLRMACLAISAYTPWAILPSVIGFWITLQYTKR
Target sequence (P06935 1502-1679 limits assumed): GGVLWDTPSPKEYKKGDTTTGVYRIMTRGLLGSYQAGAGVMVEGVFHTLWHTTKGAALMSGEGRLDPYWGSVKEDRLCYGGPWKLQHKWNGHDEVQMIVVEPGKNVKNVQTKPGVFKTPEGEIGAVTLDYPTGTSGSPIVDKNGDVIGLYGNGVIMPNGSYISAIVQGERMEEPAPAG
Hsc70 = Hsc70 inhibitors, probe displacement, primary screen, biochemical, fluorescence polarization (AID 568); Hsc70 fluorescence polarization, probe displacement; higher % means a stronger effect; strong numbers were not always called active; one-dose displacement, % at 20 µM; IC50 in µM for titrated hits; 83,000 tested, under 10 active;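 active = displacement above 50% without optical interference and an IC50 on retest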;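 note: ATPase domain with a fluorescein-tagged ATP probe; 0% = vehicle and 100% = excess ADP; read after one hour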
MT1-MMP promoter = inhibitors of MT1-MMP promoter transcription, cell-based, luciferase reporter, luminescence (AID 618) | MT1-MMP promoter luciferase reporter cells, luminescence | calls from a first round at 10 µM; hits with a dose series show EC50 in µM | actives 0.62% (n = 87,000);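 active = over half of the reporter light lost at 10 µM or EC50 under 50 µM; inactive = the rest and hits that failed the dose series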;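 note: actives suppress MT1-MMP promoter-driven transcription so potencies describe inhibitors; HT1080 fibrosarcoma cells; overnight exposure; toxic or luciferase-blocking compounds were not removed from the actives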
Active calls of the source: *; i = inactive; · = no result given; + = active, no number.

SMILES | WNV NS2B-NS3 inh | Hsc70 | MT1-MMP promoter
c1cc(-c2nc3cc(Cc4ccc5oc(-c6ccncc6)nc5c4)ccc3o2)ccn1 | -0.37 | 5.7% | i
Cc1cc(C)cc(NC(=O)CSc2nnc(Cc3cccn3C)n2-c2ccc(F)cc2)c1 | -0.01 | 2.2% | i
CC(C)[C@H](NS(=O)(=O)c1ccccc1)C(=O)OCn1nnc2ccccc2c1=O | · | -0.4% | i
Cc1nc(N2CCN(C(=O)c3ccco3)CC2)c2oc3ccccc3c2n1 | 1.4 | 6.9% | i
COc1ccc(-c2[nH]nc3c2C(c2ccccc2OC(=O)N2CCOCC2)C(C#N)=C(N)O3)cc1 (stereo not given) | 0.12 | -0.1% | i
CCOc1ccc(N(CC(=O)Nc2ccc(C)cc2)S(=O)(=O)c2c(C)noc2C)cc1 | -0.05 | -2.0% | i
O=C(CSc1nncc2ccccc12)N1CCOCC1 | 0.73 | -3.5% | i
CCCNC(=O)c1ccc(Cl)c(Cl)c1 | · | -3.2% | i
COc1ccc(Cl)cc1C(=O)CSc1nc(N)cc(N)n1 | -0.09 | 7.9% | i
CC(C)(C)c1ccc(-c2nc(C#N)c(NCc3cccnc3)o2)cc1 | · | 3.5% | i
O=C1c2ccc(Oc3ccc4c(c3)C(=O)N(CCCCO)C4=O)cc2C(=O)N1CCCCO | -0.09 | 1.7% | i
O=C(O)CSCC(=O)NCc1ccccc1 | -0.16 | -0.9% | i
CCOc1ccc(-n2cnnn2)cc1S(=O)(=O)N1CCCCC1 | 0.39 | 2.2% | i
CCOc1cccc(CNCCNC(=O)c2nonc2N)c1 | · | -3.6% | i
CCOC(=O)CN(C(=O)CSc1nnc(CNc2ccc(F)cc2)n1C)c1ccccc1 | · | 0.7% | i
COc1ccc(C)cc1S(=O)(=O)Nc1ccccc1C | -0.05 | 3.2% | i
COc1ccc(S(=O)(=O)Nc2nc3ccccc3s2)cc1 | · | 5.9% | i
COc1cc2c(cc1OC)C1=C(C#N)CN(C3CCCCC3)CN1CC2 | 0.75 | 2.5% | i
COc1ccc(NC(=O)CN2CCCN(S(=O)(=O)c3ccc(F)cc3)CC2)cc1 | · | -0.3% | i
Nc1nc(CN2CCN(c3ccccc3F)CC2)nc(Nc2ccc3c(c2)OCCO3)n1 | · | -4.8% | i
CCCCn1cnc2c(c1=O)c1nc3ccccc3nc1n2Cc1ccc2c(c1)OCO2 | -0.7 | 1.8% | i
COc1ccc(C(=O)NCS(=O)(=O)c2ccc(C)cc2)cc1 | · | -1.1% | i
CS(=O)(=O)N1CCC(C(=O)Nc2ccc(Oc3ccccc3)cc2)CC1 | 1.8 | -2.8% | i
CCOC(=O)C1=C(C)N=c2s/c(=C3\C(=O)Nc4ccccc43)c(=O)n2C1c1ccc2c(c1)OCO2 (stereo not given) | 0.41 | -3.1% | i
Cc1ccnc2nc(C(=O)OCC(=O)Nc3ccc4c(c3)OC(F)(F)O4)nn12 | · | 1.6% | i
COC(=O)C1=C(C)N(C2CCCCC2)C(=O)C1 | · | 0.2% | i
O=C(CCCOc1ccc(Cl)cc1)Nc1nncs1 | 0.51 | -3.6% | i
CSc1cc(C)nc(NC(C)=O)n1 | -1.4 | -3.1% | i
Cc1nn(C)c(C)c1CN(C)C(=O)CCCC(=O)O | · | 4.5% | i
CCC(=O)NC1(C(F)(F)F)C(=O)NC(C)=C1C#N (stereo not given) | -1.4 | 3.4% | i
Cc1ccc(NC(=O)CS(=O)CC(=O)N(C2CCCC2)C(C)C(=O)NC2CCCCC2)cc1 (stereo not given) | 0.37 | 0.9% | i
CC1CCC(n2c(=S)[nH]c3ccccc3c2=O)CC1 (stereo not given) | -1.3 | 0.1% | i
COC(=O)c1sc2ccccc2c1NC(=O)c1cccs1 | 0.9 | -3.0% | i
COC(=O)c1noc(-c2ccc(OC)cc2)n1 | 0.76 | 0.1% | i
Cc1ccnc(NS(=O)(=O)c2ccc(NC(=O)C3CCCNC3=O)cc2)n1 (stereo not given) | 0.61 | 1.6% | i
O=C(COC(=O)CNC(=O)c1ccco1)NCCN1C(=O)CSC1=O | 0.82 | 3.0% | i
Cc1cc2ccccc2c(=O)n1CC(=O)NC1CCCCCC1 | 0.42 | -1.6% | i
CC1=CC(C)(C)N(S(=O)(=O)c2ccc(C)cc2)c2ccc(C)cc21 | · | 2.6% | +
O=C(NCc1ccc(Cl)cc1)c1cc(-c2ccco2)on1 | -1.5 | -2.6% | i
O=C(NCc1ccccn1)C1C2C=CC(C2)C1C(=O)Nc1ccc(F)cc1 (stereo not given) | · | -0.5% | i
CC(C)(CC(=O)N1CCN(c2ccc(Cl)cc2)CC1)CC1=NS(=O)(=O)c2ccccc2N1 | -0.87 | -4.3% | i
CCCN1C(=O)SC(CC(=O)Nc2ccccc2)C1=O (stereo not given) | 0.83 | 0.0% | i
O=C(N1CCN(Cc2ccccc2)CC1)C12CC3CC(CC(C3)C1)C2 | -0.31 | -1.9% | i
C=CCn1c(/N=C/c2ccc(N(C)C)cc2)nc2ccccc21 | 1.5 | -156% | i
O=C(O)c1cccc(NC(=O)C2C3C=CC(C3)C2C(=O)O)c1 (stereo not given) | · | -3.2% | i
Cc1ccc(C)c(N(Cc2ccccc2F)S(C)(=O)=O)c1 | · | -1.6% | i
Cc1ccc(-n2nc(C)c3c2OC(N)=C(C#N)C3c2ccoc2)cc1 (stereo not given) | 1.6 | -1.6% | i
O=C(c1ccccc1)N1CCN(Cc2ccccc2)CC1 | · | 3.9% | i
Nc1nnc(SCc2ccc(F)cc2)n1-c1ccccc1 | · | 1.3% | i
O=C(C1CCCO1)N(Cc1ccccc1)c1ccccc1 (stereo not given) | 0.08 | 6.0% | i
O=C(c1oc2ccccc2c1N1CCCCC1)N1CCCCC1 | 0.5 | 1.1% | i
CCNC(=O)C(Sc1ccccc1)c1ccccc1 (stereo not given) | · | -0.6% | i
CCOC(=O)Cn1nnc(-c2ccccc2)n1 | · | 2.3% | i
CCOC(=O)CN(C(=O)CSc1nnc(-c2cccc(OC)c2)o1)c1ccc(F)cc1 | -0.38 | -2.0% | i
CC1Cc2cc(/C(O)=C3/C(=O)C(=O)N(CCCn4ccnc4)C3c3cccnc3)ccc2O1 (stereo not given) | · | -4.1% | i
CSc1ccc(-c2nnn(CC(=O)NCc3ccccc3)n2)cc1 | -0.61 | -4.3% | i
Cc1ccc(NC(=O)CSc2nc(NS(=O)(=O)c3ccc(C)cc3)cc(=O)[nH]2)cc1 | · | 5.5% | i
Cc1cc(C)n(Cc2nc3ccccc3n2C)n1 | -0.34 | 0.1% | i
CC(C)CN(CC(C)C)S(=O)(=O)N1CCC(C(=O)NCCc2ccc(Cl)cc2)CC1 | · | 0.6% | i
CC(C)CNc1cc(Cl)c(S(=O)(=O)NCC(C)C)cc1C(=O)O | 1.5 | 1.2% | i
Later entries
SMILES | WNV NS2B-NS3 inh | Hsc70 | MT1-MMP promoter
Cc1cc(Cl)c(S(=O)(=O)NCc2ccncc2)cc1OCC(N)=O | -0.56 | -3.1% | i
Cc1ccc(S(=O)(=O)N(C)CCCC(=O)N2CCN(C=O)CC2)cc1 | 0.04 | -4.7% | i
CCOc1ccccc1NC(=O)CC(O)(C(F)(F)F)C(F)(F)F | · | 7.4% | i
COCc1nnc(NS(=O)(=O)c2c(C)cc(C)cc2C)s1 | · | 21% | i
O=C(O)CSc1nnc(-c2cccnc2)n1Cc1ccccc1 | -0.89 | -2.6% | i
CN(C)C(=O)CCCc1nc(-c2ccc(Cl)cc2)no1 | · | -6.0% | i
CC(CCc1ccccc1)NC(=O)c1ccc(Br)o1 (stereo not given) | 0.69 | -4.6% | i
CCOC(=O)c1oc2ccccc2c1CN1CCOCC1 | -0.19 | 0.5% | i
COc1ccc(CNC(=O)C2CCN(c3nccs3)CC2)cc1 | 0.75 | -3.3% | i
c1ccc(-c2ccc(C3=Nn4c(nnc4-c4cc(-c5ccccc5)n[nH]4)SC3)cc2)cc1 | · | -0.2% | i
CN(C(=O)c1cnc2n(c1=O)CCS2)C1CCCCC1 | 0.08 | 8.2% | i
O=C(CCS(=O)(=O)c1ccc(Cl)cc1)N1CCN(c2ccccc2F)CC1 | -0.05 | -8.0% | i
COCCCn1cnc2oc3nc4ccccc4nc3c2c1=O | -1.6 | -1.9% | i
CCCCNC(=O)c1ccccc1C(=O)NCCCC | 1.6 | -0.9% | i
COc1ccc(OC)c(CCNC(=O)CN2C(=O)CC(C)(C)S(=O)(=O)c3ccccc32)c1 | -0.84 | -0.4% | i
COc1ccc(S(=O)(=O)N2CCC(C(=O)N3CCCC3)CC2)cc1Cl | -0.58 | 6.7% | i
Cc1cc2nc(C)n(CCCN)c2cc1C | 0.98 | 0.1% | i
CSCCC(NC(=O)c1ccc(=O)n(C)n1)c1nc2ccccc2[nH]1 (stereo not given) | 1.5 | -5.0% | i
O=C(c1ccc(Br)o1)N1CCN(C/C=C/c2ccccc2)CC1 | -1.1 | -1.2% | i
COc1ccccc1NC(=O)C(C/C=C(/C)Cl)C(C)=O (stereo not given) | · | 0.8% | i
COc1ccc(OC)c(NC(=O)C2CCCC2)c1 | -0.65 | -1.5% | i
COc1ccc(CC(=O)NCc2cn3ccsc3n2)cc1 | -1.9 | 5.0% | i
O=c1c2ccccc2nc2n1-c1ccccc1CCC2 | -0.18 | -1.2% | i
C[C@]12CC[C@@H]3c4ccc(O[C@@H]5O[C@H](C(=O)O)[C@@H](O)[C@H](O)[C@H]5O)cc4CC[C@H]3[C@@H]1C[C@@H](O)[C@@H]2O | 0.17 | 0.1% | i
CCOC(=O)CCNCC1COc2ccccc2O1 (stereo not given) | 0.78 | -0.8% | i
CCCn1c(=NC(=O)c2ccncc2)c(C#N)cc2c(=O)n3cccc(C)c3nc21 | 0.64 | 1.2% | i
CCn1cc(S(=O)(=O)CC(=O)Nc2ccc(C)cc2)c2ccccc21 | 2.7 | -7.9% | i
COc1ccccc1CC1(C)NC(=O)N(CC(=O)N2CCc3ccccc3C2)C1=O (stereo not given) | -0.01 | 3.0% | i
Cc1ccc(Cl)cc1N1CCN(CC(=O)Nc2ccc(CN3CCCCC3)cc2)CC1 | · | -0.6% | i

Looked up by structure from above:
SMILES | WNV NS2B-NS3 inh | Hsc70 | MT1-MMP promoter
O=C(c1ccc(Br)o1)N1CCN(C/C=C/c2ccccc2)CC1 | -1.1 | -1.2% | i
C[C@]12CC[C@@H]3c4ccc(O[C@@H]5O[C@H](C(=O)O)[C@@H](O)[C@H](O)[C@H]5O)cc4CC[C@H]3[C@@H]1C[C@@H](O)[C@@H]2O | 0.17 | 0.1% | i

Sorted by SMILES length (falling): part of the list above
SMILES | WNV NS2B-NS3 inh | Hsc70 | MT1-MMP promoter
C[C@]12CC[C@@H]3c4ccc(O[C@@H]5O[C@H](C(=O)O)[C@@H](O)[C@H](O)[C@H]5O)cc4CC[C@H]3[C@@H]1C[C@@H](O)[C@@H]2O | 0.17 | 0.1% | i
c1ccc(-c2ccc(C3=Nn4c(nnc4-c4cc(-c5ccccc5)n[nH]4)SC3)cc2)cc1 | · | -0.2% | i
COc1ccc(OC)c(CCNC(=O)CN2C(=O)CC(C)(C)S(=O)(=O)c3ccccc32)c1 | -0.84 | -0.4% | i
CCCn1c(=NC(=O)c2ccncc2)c(C#N)cc2c(=O)n3cccc(C)c3nc21 | 0.64 | 1.2% | i
Cc1ccc(Cl)cc1N1CCN(CC(=O)Nc2ccc(CN3CCCCC3)cc2)CC1 | · | -0.6% | i
O=C(CCS(=O)(=O)c1ccc(Cl)cc1)N1CCN(c2ccccc2F)CC1 | -0.05 | -8.0% | i
Cc1ccc(S(=O)(=O)N(C)CCCC(=O)N2CCN(C=O)CC2)cc1 | 0.04 | -4.7% | i
CCn1cc(S(=O)(=O)CC(=O)Nc2ccc(C)cc2)c2ccccc21 | 2.7 | -7.9% | i
CCOc1ccccc1NC(=O)CC(O)(C(F)(F)F)C(F)(F)F | · | 7.4% | i
COCc1nnc(NS(=O)(=O)c2c(C)cc(C)cc2C)s1 | · | 21% | i
COc1ccc(CNC(=O)C2CCN(c3nccs3)CC2)cc1 | 0.75 | -3.3% | i
O=C(O)CSc1nnc(-c2cccnc2)n1Cc1ccccc1 | -0.89 | -2.6% | i
CN(C(=O)c1cnc2n(c1=O)CCS2)C1CCCCC1 | 0.08 | 8.2% | i
COCCCn1cnc2oc3nc4ccccc4nc3c2c1=O | -1.6 | -1.9% | i
CC(CCc1ccccc1)NC(=O)c1ccc(Br)o1 (stereo not given) | 0.69 | -4.6% | i
O=c1c2ccccc2nc2n1-c1ccccc1CCC2 | -0.18 | -1.2% | i
COc1ccc(OC)c(NC(=O)C2CCCC2)c1 | -0.65 | -1.5% | i
CCCCNC(=O)c1ccccc1C(=O)NCCCC | 1.6 | -0.9% | i
CCOC(=O)CCNCC1COc2ccccc2O1 (stereo not given) | 0.78 | -0.8% | i
Cc1cc2nc(C)n(CCCN)c2cc1C | 0.98 | 0.1% | i
